Vaccinia Venus: vaccinia inhibition (Venus reporter); Vaccinia virus Venus reporter expression, fluorescence; Potency, µM (doses to about 36.5 µM), for inactives: at the top dose activity change, negative = inhibition, usual class: inhibitors; 330,000 compounds, 0.46% hits; AID 720580; active means well fitted inhibition curve with a large enough effect; inconclusive means small, poorly fitted or top-dose-only effect; inactive means no such curve, though single readings can be large or run the other way; tested in A549 cells; also: nearly all actives have a fitted effect of over 30% in size; inactives centre near -10
VACV mCherry inh: inhibitors of vaccinia virus infection (mCherry reporter signal); Potency, µM (highest dose often 36.5 µM), inactives show top-dose activity change, negative = inhibition, usual class: inhibitors; 310,000 compounds, 0.63% hits; Vaccinia virus mCherry reporter infection, fluorescence; about a quarter of the inactives have no number; AID 720579; active = well fitted inhibition curve with a large enough effect; inconclusive = small, poorly fitted or top-dose-only effect; inactive = no such curve, though single readings can be large or run the other way; tested in A549 cells; also: nearly all actives have a fitted effect of over 35% in size; inactives centre near -10
* = called active by the depositor; i = inactive; u = inconclusive; x = no result given; & = joins results of further samples; [ ] = dose if it differs, or a comment. % is scaled to controls: 0 for no effect and ±100 for the full control effect; potency is read from the fitted curve at half-maximal effect.

A first look:
structure | Vaccinia Venus | VACV mCherry inh
CN(c1ccc(C(=O)N2CCCCC2)cc1)S(C)(=O)=O | -2% | -19%
O=C(Nc1ccc(F)cc1)Nc1nnc(-c2ccccc2)o1 | -13% | i

The listing (from the top)
structure | Vaccinia Venus | VACV mCherry inh
CN(c1ccc(C(=O)N2CCCCC2)cc1)S(C)(=O)=O | -2% | -19%
O=C(Nc1ccc(F)cc1)Nc1nnc(-c2ccccc2)o1 | -13% | i
CCOc1ccc2nc(/N=C/c3nc(-c4ccccc4)oc3O)sc2c1 | -19% | i
N#CCC(=O)NNC(=S)Nc1ccccc1C(F)(F)F | 1% | 6%
CC1CCN(S(=O)(=O)c2ccc3c(c2)CCN3C(=O)CCC(=O)O)CC1 | -7% | -5%
CC1=Nc2cc(C(=O)NCc3ccccc3Cl)ccc2Sc2c(C)ccc(C)c21 | -27% | u
CCOc1ccc(NS(=O)(=O)c2cc(NC(=O)CCC(=O)c3cccs3)ccc2Cl)cc1 | -23% | -16%
CC(C)CC(=O)NC(=S)Nc1ccc(S(=O)(=O)N2CCN(C)CC2)cc1 | -25% | -14%
CCN(CC)C(=O)CSc1nnc(-c2ccccc2)n1-c1ccccc1 | -13% | x
CC1CCCN(CCCNC(=O)c2cc3c(s2)-c2ccccc2OC3)C1 (configuration not stated) | u | u
COc1ccccc1CNC(=O)C(=O)NCC1OCCN1S(=O)(=O)c1cccs1 (configuration not stated) | 1% | -12%
O=C(NC(=S)NC1CCSC1=O)c1ccccc1Cl (configuration not stated) | -14% | u
Cc1oc(-c2cccs2)nc1CNC[C@H]1O[C@@H](n2cnc3c(N)ncnc32)[C@H](O)[C@@H]1O | 0% | -15%
Cc1cccc(N(C)S(=O)(=O)c2cc3c(cc2C)n(C)c(=O)c(=O)n3C)c1 | -8% | -12%
Cc1cc(-c2n[nH]c(=S)n2-c2ccccc2C)cs1 | -10% | -11%
Cc1ccc(C(O)c2ncc(-c3ccccc3C)[nH]2)cc1 (configuration not stated) | -17% | 20%
COc1ccc([N+](=O)[O-])cc1/C=N/NC(=O)/C(=C\c1cccs1)NC(=O)c1ccccc1 | 11% | 12%
O=C(COc1ccc(F)cc1)c1ccc2c(c1)CCCC2 | -21% | x
CCS(=O)(=O)N1Cc2ccccc2CC1C(=O)Nc1ccc(OC)cc1OC (configuration not stated) | -9% | -6%
CC1CCCCC1NC(=O)COC(=O)c1ccc([N+](=O)[O-])o1 (configuration not stated) | -3% | -21%
O=C(Nc1c2c(nn1-c1ccccc1)CS(=O)C2)c1ccco1 (configuration not stated) | -6% | -8%
Cc1ccc(C(=O)O/N=C/c2ccc3c(c2)OCO3)cc1 | -14% | i
CCN(CC)C(=O)c1ccccc1NC(=O)c1cccc(S(=O)(=O)N2CCC(C)CC2)c1 | -14% | -4%
COc1ccc(NC(=S)NCCCN2CCN(C3CCCCC3)CC2)cc1 | -12% | i
CCN(CC)c1ccc(C2C(C(C)=O)C(=O)CC(C)(O)C2C(C)=O)cc1 (configuration not stated) | -1% | -12%

Three structures already listed, sorted by molar mass, descending.
structure | Vaccinia Venus | VACV mCherry inh
CCS(=O)(=O)N1Cc2ccccc2CC1C(=O)Nc1ccc(OC)cc1OC (configuration not stated) | -9% | -6%
CCN(CC)C(=O)CSc1nnc(-c2ccccc2)n1-c1ccccc1 | -13% | x
CC1CCCCC1NC(=O)COC(=O)c1ccc([N+](=O)[O-])o1 (configuration not stated) | -3% | -21%

(further entries)
structure | Vaccinia Venus | VACV mCherry inh
COc1cccc(NC(=O)c2cc(-c3ccco3)nc3ccccc23)c1 | -8% | -8%
O=S(=O)(c1ccc2c(c1)C(=NO)c1cc(S(=O)(=O)N3CCCCC3)ccc1-2)N1CCCCC1 | 1.4µM* | 1.8µM*
CCOC(=O)C1=CNS(=O)(=O)NC1c1cccc(O)c1 (configuration not stated) | -3% | -15%
Cc1ccc(NC(=O)N2CCCC2C(=O)NCC2CCCO2)cc1 (configuration not stated) | 4% | -3%
CCCCn1c(SCC(=O)NCc2ccco2)nc2c1c(=O)n(C)c(=O)n2C | -8% | x
Cc1cccn2c(=O)c3cc(C(=O)N4COCC4(C)C)sc3nc12 | -7% | i
COc1ccc(NC(=O)c2ccco2)cc1NC(=O)COc1ccc(C)cc1C | u | -7%
Cc1ccc(C(=O)NN2C(=O)C3C4c5ccccc5C(c5ccccc54)C3C2=O)cc1 (configuration not stated) | -5% | -13%
CN1C(=O)/C(=C/c2ccccc2OCc2ccccc2F)NC1=S | 3% | -6%
COc1ccc(C)cc1N(C(=O)c1ccco1)C(C(=O)NC1CCCC1)c1cc(OC)c(OC)c(OC)c1 (configuration not stated) | 0% | u
Cc1cccc(Cn2c(C)c(C)c3cc(C(=O)NCc4ccco4)ccc32)c1 | -30% | u
CON(C)c1nc(OCC#N)nc(N(C)C)n1 | -6% | i
CCN1CCN(C(=O)CCN2C(=O)c3ccccc3S2(=O)=O)CC1 | -1% | -16%
O=C(O)C1=C[C@H](C2CC2)C[C@H](OCc2ccc(CO)cc2)O1 | 3% | i
CC(C)(C)CC(C)(C)n1nnnc1N | -8% | -18%
COc1cc(NC(=O)C2CCCN2S(=O)(=O)c2ccc3c(c2)CC(C)N3C(C)=O)cc(OC)c1 (configuration not stated) | 0%[7.34 µM] | i[7.34 µM]
CCCCCCOc1ccc(CC(=O)O)cc1 | -8% | -8%
Cc1nc2c3ccccc3nc(NNC(=O)CCC(=O)NCCC(C)C)n2n1 | -1% | -5%
CC(NC(=O)Nc1ccccc1C(F)(F)F)C1CCCO1 (configuration not stated) | -7% | i
O=C(C=Cc1cccs1)c1ccc(Cl)s1 | 6% | i
CC(C)(C)c1ccc(NC(=O)COC(=O)CCc2nc3ccccc3c(=O)[nH]2)cc1 | -9% | -16%
COCCc1ccc(OC2(C)CCN(Cc3cccc(OCOC)c3)C2)cc1 (configuration not stated) | -11% | u
C(=N\N1CCN(C2c3ccccc3-c3ccccc32)CC1)/c1cccnc1 | -10% | x
O=C(/C=C/c1ccc(O)c(O)c1)O[C@@H]1C[C@](O)(C(=O)O)C[C@@H](O)[C@H]1O | -9%&-19% | -7%
O=C(CN1C(=O)/C(=C/c2ccccc2)SC1=S)N1CCN(CCc2ccccn2)CC1 | -15% | -12%

Further results follow.
structure | Vaccinia Venus | VACV mCherry inh
CCC1(CC)CNC(=O)NC1 | 9% | -3%
Cc1ccc(Oc2ccc(C=O)cn2)cc1 | 7% | -8%
COc1ccc(N2CCN(C(=O)c3ccc4c(c3)NC(=O)C(CSCc3ccccc3F)N4)CC2)cc1 (configuration not stated) | -3% | -6%
CCOC(=O)c1sc(-c2ccc(C(F)(F)F)cc2)nc1O | -6% | -2%
CCOC(=O)C1=C(N2CCCCC2)c2cc3c(n2C1=O)CCCC3 | u | u
CC(C)(C)C1CCc2c(sc(NC(=O)c3ccncc3)c2C(N)=O)C1 (configuration not stated) | -13% | -9%
COc1cc(C(=O)NCc2nnc(SCC(=O)N3CCCCC3)o2)cc(OC)c1OC | -13% | 0%
Cc1ccc(Cn2c(CNC(=O)CCc3ccccc3)nc3cccnc32)cc1 | -1% | -9%
Cc1nn(CC2CC2)c(=O)n1-c1ccccc1F | -18% | i
CCCCCCSc1ccc([C@H]2N[C@@](CC(C)C)(C(=O)OC)[C@H]3C(=O)N(C)C(=O)[C@@H]23)cc1 | -30% | -10%
Cc1ccnc(NC(=O)c2cccc([N+](=O)[O-])c2C)c1 | 0% | i
COCCn1c(=O)[nH]c2cc(C(=O)N3CCN(c4ccccc4F)CC3)ccc2c1=O | -21% | -27%
COc1cc(C(=O)NCc2nnc(SCC(=O)NCCc3ccccc3)o2)cc(OC)c1OC | -12% | i
O=C(O)CCCn1cc(NC(=O)COc2cccc(Cl)c2)cn1 | -4% | -7%
COc1ccc(NC(=O)CCNC(=O)c2ccc([N+](=O)[O-])cc2)cc1S(=O)(=O)N1CCOCC1 | -6% | i
COc1ccc(C(CNC(=O)c2ccc(S(=O)(=O)N(C)C)cc2)N(C)C)cc1 (configuration not stated) | -3% | -22%
COc1ccc(NC(=O)/C(C#N)=C\c2ccc(OCc3ccc(C(=O)O)cc3)c(OC)c2)cc1 | -3% | i
CC(C)COC(=O)NC1c2ccccc2Oc2ccccc21 | -23% | i
CC(C)CC(CO)NS(=O)(=O)c1cccc(Cl)c1F (configuration not stated) | -5% | i
CC1(C)Cc2c(sc(NC(=O)c3ccco3)c2C#N)C(C)(C)N1 | -12% | -16%
CCCNC(=O)CCc1nnc2ccc(N3CCN(c4cccc(OC)c4)CC3)nn12 | -9% | -11%
CCOc1ccc(CCNC(=O)c2oc3c(c2C)-c2[nH]ncc2CC3)cc1OCC | -10% | 1%
CC1=C(C#N)C(c2cn(-c3ccccc3)nc2-c2cccs2)C(C#N)=C(C)N1 | -10% | i
COCCn1c(=O)[nH]c2cc(C(=O)Nc3cc(C)cc(C)c3)ccc2c1=O | -13% | i
COc1ccc(OC)c(C(Nc2ccccc2)P(=O)(OC(C)C)OC(C)C)c1 (configuration not stated) | -15% | -19%

Quoted from the listing:
In VACV mCherry inh, `CCCNC(=O)CCc1nnc2ccc(N3CCN(c4cccc(OC)c4)CC3)nn12` reads -11%
In Vaccinia Venus, `CCCCCCSc1ccc([C@H]2N[C@@](CC(C)C)(C(=O)OC)[C@H]3C(=O)N(C)C(=O)[C@@H]23)cc1` reads -30%
In Vaccinia Venus, `CC(C)CC(CO)NS(=O)(=O)c1cccc(Cl)c1F` (configuration not stated) reads -5%

New compounds follow.
structure | Vaccinia Venus | VACV mCherry inh
O=C(O)c1c(Cl)cccc1Cl | -8% | i
CCOC(=O)C1CCN(Cc2c(F)cccc2Cl)CC1 | -8% | 0%
COC(=O)/C(=C\Nc1ccccc1N)c1ncc(C(F)(F)F)cc1Cl | -8% | x
COC(=O)C1=C(c2ccc(-c3ccccc3)c(F)c2)C[C@@H]2CC[C@H]1N2C(=O)NC(C)C | u | u
COCCc1nnc(NC(=O)C(C)C)s1 | -11% | i
O=C(NCc1ccccc1)C1=C[C@H](C2CC2)C[C@H](OCCCCO)O1 | -2% | -12%
CC(C)C1=NN(C(=O)c2ccccc2)C(O)(C(C)(C)C)C1 (configuration not stated) | -10% | i
CC(OC(=O)Cc1n[nH]c(=O)c2ccccc12)C(=O)N(C)c1ccccc1 (configuration not stated) | -20% | i
CCOC(=O)NC(NCc1cccc(C(F)(F)F)c1)(C(F)(F)F)C(F)(F)F | -2% | -10%
Cc1ccc(Oc2nc(CN3CCOCC3)nc3sc4c(c23)CCC(C)C4)cc1 (configuration not stated) | -18% | -23%
CC(C)c1ccc(N2C(=O)N(Cc3cccc([N+](=O)[O-])c3)c3ccccc3S2(=O)=O)cc1 | -6% | 3%
NC(c1csc(Nc2cc(Oc3ccccc3)ncn2)n1)c1ccccc1Cl (configuration not stated) | u | u
CS(=O)(=O)c1ccc(-c2cccc(NC(=O)COc3ccccc3)c2)nn1 | -19% | i
Nc1ccccc1C#Cc1ccc2[nH]ccc2c1 | -4% | i
Cn1c(=S)c2[nH]c(SCc3cccnc3)nc2n(C)c1=O | -1% | i
O=C(Cn1c(=O)n(Cc2ccco2)c(=O)c2cccnc21)Nc1ccccc1F | 0% | -8%
COc1ccc(NC(=O)CN(C)C(=O)c2cccc(S(=O)(=O)N3CC4(C)CC3CC(C)(C)C4)c2)cc1 (configuration not stated) | -17% | i
CCCCn1c(CCC(=O)O)nc2cc(S(=O)(=O)N3CCCC3)ccc21 | -16% | i
CCn1c(=O)c(C(=O)NNC(=O)c2cccc(Cl)c2)c(O)c2ccccc21 | -9% | -45%
CC1S/C(=N/N=C2CCCCC2)NC1=O (configuration not stated) | -21% | i
COC(=O)c1ccccc1NC(=O)C1=CC(c2ccc3c(c2)OCO3)=NS(=O)(=O)N1C | 0% | -11%
CCOc1ccc(C2c3c(oc4ccc(C)cc4c3=O)C(=O)N2c2nc(C)c(C)s2)cc1OC (configuration not stated) | -9% | -12%
Cc1ccc2[nH]c(=O)c(CN(CC3CCCO3)C(=S)NCc3ccco3)cc2c1 (configuration not stated) | -9% | i
CCOc1cccc2sc(N(CCN(CC)CC)C(=O)c3ccc(S(=O)(=O)N4CCCCC4)cc3)nc12 | -6% | i
CN1/C(=C\C(=O)C[n+]2ccc3ccccc3c2)C(C)(C)c2ccccc21 | -4% | -3%

The list continues.
structure | Vaccinia Venus | VACV mCherry inh
O=C1NC(=O)N(c2ccccc2)C(=O)/C1=C\C=C\c1ccccc1 | -8%[7.34 µM] | i[7.34 µM]
COc1ccc(CCNC(=O)[C@@H](NC(N)=O)C(C)C)cc1 | -2% | i
Cn1ccnc1SCCNC(=O)CCc1nnc(CCc2ccccc2)o1 | -7% | -4%
CCOC(=O)c1ccccc1NC(=O)c1nn(C)c2c1COc1ccccc1-2 | -17% | -14%
Cc1ccc(-c2c[n+](CC(=O)Nc3nc(-c4ccc(F)cc4)cs3)c3n2CCC3)cc1 | -26% | -16%
CCCCCCCc1ccc(C2NC(=S)NC3=C2C(=O)c2ccccc23)cc1 (configuration not stated) | -16% | u
C[C@H](NC(=O)CNC(=O)[C@@H](NC(=O)[C@H](Cc1ccccc1)NC(=O)CNC(=O)CNC(=O)[C@@H](N)Cc1ccccc1)[C@@H](C)O)C(=O)N[C@@H](CCCN=C(N)N)C(=O)N[C@@H](CCCCN)C(=O)N[C@@H](CO)C(=O)N[C@@H](C)C(=O)N[C@@H](CCCN=C(N)N)C(=O)N[C@H](CN)CCCCN | -5%[3.33 µM] | -13%[3.33 µM]

Bioassay records as filed in PubChem.
